# Screens as filed in PubChem.
# GLA inh pH 4.5 = inhibitors of human alpha-galactosidase A at pH 4.5. P06280. purified enzyme, 4-MU-alpha-Gal fluorescence, pH 4.5. activity change, negative = inhibition, % at 105 µM. 230,000 tested, under 10 active; inconclusive = small, poorly fitted or top-dose-only inhibition, or a rising curve; inactive = flat fitted curve, though single readings scatter; no compound was filed as active;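 note: 0% = full activity with enzyme and -100% = basal without enzyme; dose as in the result columns while the protocol names 77 µM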
# miR-21 FLuc = raises the signal of a miR-21 reporter; HeLa miR-21 FLuc reporter, luciferase, 48 h; Potency, µM (top dose mostly 38.3 µM), for inactives: top-dose reporter change, positive = more light; 340,000 tested, under 10 active; active = well fitted rising curve with a large enough effect; inconclusive = small, poorly fitted or top-dose-only effect; inactive = no such curve, though single readings can be large or run the other way;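 note: % of control where 0% means no effect; miR-21 action dims this reporter so a rising signal means less miR-21 action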
#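 Using DMEM plus 10% FBS, HeLa miR-21-FLuc cells are incubated with test compounds (final up to about 40uM) for 48 hours; firefly luciferase signal is then imaged following reagent-mediated lysis.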
# Rango dissoc inh = inhibitors of RanGTP-induced Rango-importin beta complex dissociation. AID 540253. Biochemical FRET Rango-importin beta, RanGTP-induced dissociation. Potency, µM (doses to about 46.1 µM), inactives show top-dose activity change, negative = inhibition. 340,000 compounds, 0.071% hits; active means falling FRET ratio curve, often poorly fitted, with flat reads before Ran was added; inconclusive means other falling curves, or compound fluorescence or quenching; inactive means flat or rising ratio curve;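 note: potency is the fitted concentration of half-maximal effect; % of control where 0% means no effect; nearly all actives have a fitted effect of over 45% in size; -100% = wells without RanGTP and RCC1; the record marks most hits as doubtful in a second field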
#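 Compounds preincubate 5 min with complex of recombinant Rango and importin beta in PBS with 1 mM DTT. Ran (0.6 uM) loaded with 2 mM GTP plus 0.2 uM RCC1 starts dissociation; FRET is recorded 45 min later.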
# Rango-impB inh = prevents formation of the Rango-importin beta complex; Q14974; Rango CFP/YFP FRET sensor + importin beta, 45 min; Potency, µM (titrated, usually from 92.2 µM), for inactives: top-dose inhibition of complex formation; 340,000 compounds, 0.031% hits; AID 540263; active = rising FRET ratio curve, often small or poorly fitted; inconclusive = mostly compound fluorescence or quenching in the first reads; inactive = flat curves in all reads;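 note: potency is the fitted concentration of half-maximal effect; 0% = DMSO wells and 100% = buffer wells lacking importin beta; nearly all actives have a fitted effect of over 15% in size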
# Target sequence (Q14974 whole entry, looked up): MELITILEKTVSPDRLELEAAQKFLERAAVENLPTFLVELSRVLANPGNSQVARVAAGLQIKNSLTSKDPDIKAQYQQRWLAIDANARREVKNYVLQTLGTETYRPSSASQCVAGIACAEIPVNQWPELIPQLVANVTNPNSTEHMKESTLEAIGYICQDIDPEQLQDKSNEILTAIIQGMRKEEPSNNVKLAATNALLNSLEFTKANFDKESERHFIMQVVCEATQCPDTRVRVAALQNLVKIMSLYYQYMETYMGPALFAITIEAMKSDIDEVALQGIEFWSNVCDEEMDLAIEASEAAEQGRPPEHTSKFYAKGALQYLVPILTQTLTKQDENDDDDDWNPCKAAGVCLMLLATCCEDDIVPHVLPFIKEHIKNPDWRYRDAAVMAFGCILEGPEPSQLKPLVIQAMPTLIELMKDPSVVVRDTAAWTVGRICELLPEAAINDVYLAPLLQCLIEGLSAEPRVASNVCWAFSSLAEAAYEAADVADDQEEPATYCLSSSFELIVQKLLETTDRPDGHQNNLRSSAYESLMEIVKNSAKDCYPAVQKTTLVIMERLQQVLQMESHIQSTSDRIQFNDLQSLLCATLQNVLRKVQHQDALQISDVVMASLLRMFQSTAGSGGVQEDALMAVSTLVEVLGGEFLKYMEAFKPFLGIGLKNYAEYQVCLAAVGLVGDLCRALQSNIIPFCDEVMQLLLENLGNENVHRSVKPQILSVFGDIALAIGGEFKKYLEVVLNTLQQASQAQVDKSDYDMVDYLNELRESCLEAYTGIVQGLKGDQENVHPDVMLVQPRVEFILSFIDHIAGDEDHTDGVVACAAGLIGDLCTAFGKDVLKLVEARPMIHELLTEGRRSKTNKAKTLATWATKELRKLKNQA
#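 FRET biosensor (snurportin 1 IBB flanked by EYFP and cerulean), 50 nM, with compound 5 min, then 0.125 microM importin beta in PBS, 1 mM DTT, 0.02% Tween-20, 0.1% BSA. CFP/YFP ratio read after 45 min at room temperature; pre-read flags interference.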
# Active calls of the source: *; ? = inconclusive; . = no result given; & = joins results of further samples; [ ] = remark or other dose.
SMILES,GLA inh pH 4.5,miR-21 FLuc,Rango dissoc inh,Rango-impB inh
CC(OC(=O)CCc1ccccc1)C(=O)Nc1ncc(Cl)cc1Cl (stereo not drawn),.,3.3%,32.4%,0.1%
Cc1ccc(N2C(=O)N(CC(=O)Nc3cccc(C)c3C)C(=O)C2C)cc1 (stereo not drawn),.,.,-7.4%,-1.1%
N#CC(c1ccc(Cl)cc1)c1nc2ccccc2nc1C(F)(F)F (stereo not drawn),-3.5,-19.2%,-2.8%,-1.4%
CC(=O)NC1(C(F)(F)F)C(=O)NC(C)=C1C#N (stereo not drawn),-9.9,-1.7%,28.0%,-1.4%
CC(=O)Nc1cccc(NC(=O)CS(=O)(=O)c2cn(CC(=O)N3CCCC3)c3ccccc23)c1,.,-2.5%,-4.7%,3.4%
CC1(C)C(C=C(Cl)Cl)C1C(=O)OCc1cccc(Oc2ccccc2)c1 (stereo not drawn),-6.4,.,1.6%,-0.8%
CN(CC(=O)Nc1cccc(F)c1)C(=O)c1cccc2ccccc12,.,.,-3.8%,-0.7%
COc1ccc(OC(C)C(=O)NC2CCCCCCC2)cc1 (stereo not drawn),.,.,6.7%,-2.8%
Cc1ccc(C(=O)Nc2ccccc2C(=O)NCc2ccco2)cc1,.,.,-15.8%,-3.0%
CCOC(=O)C(C(=O)NCc1ccc(F)cc1)c1ncc(C(F)(F)F)cc1Cl (stereo not drawn),2.0,-5.6%,-4.1%,2.2%
CN(C)CCCn1c2c3ccccc3ccc2c2oc(=O)c3ccccc3c21,.,.,?,?
CC1=CC(=O)[C@@H](OC(=O)Nc2ccc(C)cc2)[C@@H](c2ccccc2Br)N1C,.,.,5.0%,3.7%
COc1ccc(NC(=O)c2cc3ccccn3n2)cc1,-7.6,4.4%,0.7%,2.2%
O=C(CSC1CC(=O)N(CCc2ccccc2)C1=O)Nc1cccc(Cl)c1 (stereo not drawn),1.8,-9.2%,-17.7%,0.6%
CCN(CC)S(=O)(=O)c1cc([N+](=O)[O-])ccc1NNC(=O)Nc1ccc(F)cc1,-6.4,19.9%,-5.7%,-1.2%
CCCS(=O)(=O)N1CCCC(C(=O)N2CCC(Cc3ccccc3)CC2)C1 (stereo not drawn),-5.7,10.8%,?,-3.0%
COC(=O)c1ccc(C)cc1,.,.,4.6%,-1.8%
Nc1nonc1-c1nc2ccccc2[nH]1,0.2,-16.2%,4.7%,-1.4%
CC1CCCCN1CCNC(=O)C1CCCN(c2ncnc3c2nc2n3CCCCC2)C1 (stereo not drawn),.,-2.6%,-21.1%,-2.1%
Cc1cc(C)n(CC(=O)n2c3c(c4ccccc42)CCCC3)n1,?,0.7%,-1.1%,-2.8%
COc1ccc(S(=O)(=O)N2CCN(Cc3cc4c(cc3Br)OCCO4)CC2)cc1,.,.,11.9%,2.2%
CCOC(=O)c1ccccc1NC(=O)CSc1nncn1C,5.4,-6.1%,0.8%,?
CC(=O)C1=C(O)C(=O)N(c2ccccn2)C1c1ccc(C)cc1 (stereo not drawn),.,-20.6%,-14.2%,0.4%
COc1ccccc1-n1c(=O)[nH]c2c(C(N)=O)nc(-c3cccnc3)nc21,?,-7.8%,3.2%,0.1%
O=S(=O)(c1ccccc1)n1ccc2cccnc21,3.9,-5.5%,-1.2%,-0.5%
# Next section.
SMILES,GLA inh pH 4.5,miR-21 FLuc,Rango dissoc inh,Rango-impB inh
Cc1ccc(C(=O)c2coc3ccc(O)c(CN4CCN(C)CC4)c23)cc1,6.8,-8.5%,-8.9%,-1.8%
CCOc1ccc(NC(=O)c2ccc3c(c2)OCCO3)cc1S(=O)(=O)N(CC)CC,.,.,2.7%,0.1%
O=C(OC1CCCCC1=O)c1cccc(S(=O)(=O)NCc2ccccc2)c1 (stereo not drawn),-13.2,3.0%,10.6%,-0.7%
O=[N+]([O-])c1cc(S(=O)(=O)N2CCCC2)ccc1OCCOc1ccccc1,.,.,1.3%,-2.6%
O=C1[C@@H]2Cc3c([nH]c4ccccc34)C(c3ccc(Cl)cc3)N2C(=O)CN1CCO (stereo partly drawn),.,6.5%,13.5%,-10.0%
O=C1CC(c2ccccc2)CC(O)=C1C=NC1CCCCCC1 (stereo not drawn),-4.5,-26.4%,-17.8%,0.2%
COCCCNC(=O)Cc1ccccc1OC,6.9,-4.6%,-16.2%,2.2%
C/C(=C\c1cccc(Cl)c1Cl)C(=O)c1c(C)cc(C)[nH]c1=O,.,-6.3%,0.4%,2.6%
COc1ccc(/C=C2\CCCC3C2=NN(C(=O)CSc2n[nH]c(N)n2)C3c2ccc(OC)cc2)cc1 (stereo not drawn),3.2,-2.1%,-4.5%,4.5%
O=c1c(Cl)c(Cl)cnn1Cc1nnc(-c2ccc(Cl)cc2)o1,3.0,?,13.9%,-2.8%
CCN(c1ccccc1)S(=O)(=O)c1ccc(C(=O)Nc2ccccc2OC)cc1,.,.,0.5%,0.6%
CC12CCC(C(=O)Nc3ccc(Cl)cc3)([C@H](Br)C1=O)C2(C)C (stereo partly drawn),-11.3,6.6%,2.0%,-3.6%
COc1ccc(C(c2sc3ncnn3c2O)N2CC(C)OC(C)C2)cc1OC (stereo not drawn),5.1,-38.1%,0.6%,-3.5%
O=C(CC1S/C(=N/N=C/c2c[nH]c3ccc(OCc4ccccc4)cc23)NC1=O)Nc1ccccc1 (stereo not drawn),-7.4,-8.7%,?,2.4%
CN(C)S(=O)(=O)c1cccc(NC(=S)NCCCn2ccnc2)c1,-1.9,-3.7%,-0.7%,3.6%
CCS/C(N)=N/N=C/c1cc(C)ccc1O,4.2,-37.6%,1.7%,0.1%
O=C(COc1cccc(NC(=O)c2cccs2)c1)c1ccc(F)cc1,-3.9,22.5%,-6.0%,-1.1%
CCOC(=O)C1=C(C)NC(=O)NC1c1ccc(-c2ccccc2F)o1 (stereo not drawn),-3.4,-31.6%,-7.2%,?
O=C(CCl)Nc1ccc(-c2ccccc2)cc1,16.8,?,8.9%,4.8%
Cn1c(=O)c2c(nc(Br)n2CCc2ccccc2)n(C)c1=O,4.5,2.9%,-5.6%,0.3%
Cc1ccc(NC(=O)COC(=O)Cn2cnc3ccccc32)c([N+](=O)[O-])c1,-17.1,-2.8%,21.9%,1.6%
Cc1ccc(NC(=O)CNC(=O)c2ccc(C(C)(C)C)cc2)cc1S(=O)(=O)N1CCOCC1,.,.,0.7%,1.1%
COc1ccccc1N1CCN(C(=O)CCNC(=O)Cn2ccc3ccccc3c2=O)CC1,.,-2.6%,-17.4%,3.6%
COc1ccc(C2CC(c3ccc4ccccc4c3OC(C)=O)=NN2C(=O)/C=C/c2ccccc2)cc1 (stereo not drawn),-10.5,-5.8%,23.5%,1.1%
Cc1ccc(S(=O)(=O)NC(CC(=O)O)c2ccco2)cc1 (stereo not drawn),-1.0,-5.8%,-9.3%,-4.2%
# (more compounds)
SMILES,GLA inh pH 4.5,miR-21 FLuc,Rango dissoc inh,Rango-impB inh
COC(=O)c1[nH]c2cc(OC)ccc2c1N=CN(C)C,4.6,0.0%,?,0.5%
COc1ccc(S(=O)(=O)CCC(=O)N2CC(=O)N(CCc3ccccc3)C(=O)C2)cc1,-8.4,-0.3%,-6.9%,3.1%
O=C(NCc1ccccn1)c1ccc(OC2CCN(Cc3cccs3)CC2)cc1,.,-11.8%,3.4%,1.3%
N#Cc1nc(-c2ccco2)oc1NCCN1CCOCC1,0.4,-5.5%,-0.1%,-0.8%
Oc1ccccc1C1=NN(c2ccccc2)C(c2ccccc2)C1 (stereo not drawn),.,?,?,?
O=C(c1nc2ccccc2[nH]1)c1ccccc1[N+](=O)[O-],-4.2,-44.9%,-7.9%,-4.6%
COc1ccc2c(Cl)c(-c3nnc(SCC(N)=O)n3C)sc2c1,6.3,-2.9%,-3.7%,-0.7%
Cc1ccc(S(=O)(=O)NC2(C(F)(F)F)C(=O)Nc3c2c(=O)[nH]c(=O)n3-c2ccccc2)cc1 (stereo not drawn),0.9,-8.5%&5.1%,14.4%,1.0%
CN(C)c1nc(Nn2cnnc2)nc(N(C)C)n1,1.8,-1.1%,5.7%,1.3%
COc1ccc(C2(C(=O)NCCc3ccccc3)CCCC2)cc1OC,.,2.8%,10.9%,0.2%
O=S(=O)(Nc1nc2c(s1)CCCC2)c1ccc2ccccc2c1,-0.4,-0.4%,-2.0%,1.0%
CCOc1ccc(N(C)C(=O)CCc2nnc3ccc(NCc4ccco4)nn23)cc1,.,-6.3%,-11.0%,-0.3%
CC(C)(C)CC(=O)NCc1ccc(F)cc1,-4.6,-1.7%,-11.4%,0.3%
CCOC(=O)NC(=O)CSc1nc2ccc(C)cc2[nH]1,4.4,-4.8%,7.1%,-1.2%
CN1CCN(CC(=O)NN2CC(=O)N(c3ccc(F)cc3)CC2=O)CC1,-4.1,-8.6%,9.5%,5.2%
CCOC(=O)c1cncc(C(=O)O)c1,3.3,-3.5%,5.1%,3.7%
COc1ccc(C(C(=O)NC2CCCC2)N(Cc2ccc(F)cc2)C(=O)c2ccn[nH]2)cc1OC (stereo not drawn),9.6,-0.3%,-7.5%,1.9%
Cc1nc2cc(NC(=O)N3CCN(c4ccccn4)CC3)ccc2o1,10.4,-11.3%,12.2%,8.4%
FC(F)(F)c1nnc(N2CCN(c3ccc(Cl)cc3)CC2)s1,9.7,-0.6%,2.5%,-2.6%
CCN(CC)C(=O)C1CCCN(C/C(C)=C/c2ccccc2)C1 (stereo not drawn),-19.0,-4.4%,-19.2%,4.3%
Cc1nnc(SCC(=O)Nc2cc(C(F)(F)F)ccc2N2CCOCC2)o1,1.7,-9.1%,14.5%,-1.3%
O=C(NNC(=S)NC1CC2C=CC1C2)c1ccncc1 (stereo not drawn),-1.2,-3.4%,19.3%,1.2%
CCOc1cc(C)c(Cl)cc1S(=O)(=O)NCc1ccc2c(c1)OCO2,8.0,12.7%,-15.6%,-0.4%
CCN(c1ccc(NC(=O)COC(=O)CCc2nc3ccccc3n2-c2ccccc2)cc1)C(C)C,-5.0,-7.6%,0.5%,-0.7%
CN(CC(=O)Nc1ccccc1Br)c1ncnc2sccc12,-1.4[21.1 µM],1.0%,-22.0%,-1.9%

# Entries of single compounds from above. Screens in order: GLA inh pH 4.5 | miR-21 FLuc | Rango dissoc inh | Rango-impB inh
# O=S(=O)(Nc1nc2c(s1)CCCC2)c1ccc2ccccc2c1 reads -0.4 | -0.4% | -2.0% | 1.0%
# Cc1nc2cc(NC(=O)N3CCN(c4ccccn4)CC3)ccc2o1 reads 10.4 | -11.3% | 12.2% | 8.4%
# CCN(c1ccc(NC(=O)COC(=O)CCc2nc3ccccc3n2-c2ccccc2)cc1)C(C)C reads -5.0 | -7.6% | 0.5% | -0.7%
# Oc1ccccc1C1=NN(c2ccccc2)C(c2ccccc2)C1 (stereo not drawn) reads . | ? | ? | ?
# CCN(CC)C(=O)C1CCCN(C/C(C)=C/c2ccccc2)C1 (stereo not drawn) reads -19.0 | -4.4% | -19.2% | 4.3%

# Remaining list, next part:
SMILES,GLA inh pH 4.5,miR-21 FLuc,Rango dissoc inh,Rango-impB inh
NNC(=O)c1cc2c(s1)-c1cc(Cl)ccc1SC2,0.4,-28.9%,?,?
CC(C)(C)OC(=O)N1CCCC1C(=O)NC(Cc1ccccc1)C(=O)O (stereo not drawn),-11.8,-7.3%,20.1%,0.0%
Cc1ccc(C2C(C#N)=C(N)SC(N)=C2C#N)c(C)c1,-11.4,-1.4%,?,?
CCN(CC(=O)Nc1ccc(OC)cc1)C(=O)CSCc1c(C)noc1C,.,.,-0.8%,4.1%
CCOc1ccc(OCCOCCNCCOC)cc1,-2.3,-2.6%,-4.7%,-0.5%
CC(=O)N1CCSc2ccc(S(=O)(=O)N3CCC(C)CC3)cc21,.,14.7%,9.1%,0.0%
O=c1c2cn[nH]c2nc(SCc2ccc3c(c2)OCCO3)n1-c1ccccc1,-11.3,-4.9%,17.4%,0.6%
Nc1ccc2nc(NC(=O)C3CCCCC3)sc2c1,5.1,-27.8%,19.1%,-2.5%
COc1ccc(C(=O)c2c(C)c3ccccc3n2CC(O)CNC(C)C)cc1 (stereo not drawn),?,23.6%,12.4%,1.3%
COc1ccc(/C=C/C(=O)OCC(=O)Nc2ccc(N3CCOCC3)cc2)cc1,5.3,8.4%,18.7%,0.1%
COc1ccc(NC(=O)C(c2ccccc2)c2ccccc2)cn1,-4.1,-1.9%,-10.8%,0.2%

# An excerpt; count on the stated rates, not on these rows.
